Menin MLL FP FL – qHTS Assay for Inhibitors Targeting the Menin-MLL Interaction in MLL Related Leukemias: Competition With Fluorescein Labeled MLL-derived Peptide; Fluorescence polarization, fluorescein-MLL peptide displacement from menin; FP activity change, % at 61.4 µM; 290,000 tested, under 10 active; inconclusive = falling polarisation curve, or a change in total fluorescence; inactive = total fluorescence flat and polarisation flat or rising; no compound was filed as active; the % refers to the polarisation; negative = inhibition;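 further: % of control where 0% means no effect; inhibitors lower the polarisation; unlabelled MLL peptide was the positive control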
PINK1 expr mod – A Quantitative High throughput Screen to Identify Chemical Modulators of PINK1 Expression; PINK1 immunofluorescence, high-content cytometry, 24 h; Potency, µM (doses to about 76.6 µM), for the others: at the top dose activation (PINK1 increase), hits mostly activators; 0.2% of 410,000 active; active = well fitted activation curve with a large enough effect; inconclusive = small, poorly fitted or top-dose-only effect; inactive = flat fitted curve, though single readings scatter; cell line not stated here;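 further: potency means the concentration at half of the fitted maximal effect; % of control where 0% means no effect; nearly all actives have a fitted effect of over 65% in size; a mitochondrial uncoupler was the plate control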
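Stable cell line treated 24 h with compounds at 5 concentrations (CCCP controls), then fixed and immunostained for PINK1 plus nuclear and cell stains; PINK1 immunofluorescence quantified by laser-scanning microplate cytometry.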
Sfp PPTase inh – qHTS Assay for Inhibitors of Bacillus subtilis Sfp phosphopantetheinyl transferase (PPTase); 3.5% of 310,000 active; Biochemical Sfp PPTase activity, qHTS; 4'-phosphopantetheinyl transferase ffp (Bacillus subtilis), Q9F4F7; Potency, µM, without a hit: max response, negative = inhibition, hits mostly inhibitors; active means well fitted inhibition curve with a large enough effect; inconclusive means small, poorly fitted or top-dose-only effect, or another doubt; inactive means no such curve, though single readings can be large or run the other way;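 further: the enzyme is Sfp with the accession as filed and its product quenches rhodamine fluorescence; potency means the concentration at half of the fitted maximal effect; 0% = enzyme reaction without inhibitor and -100% = no enzyme wells; top concentration of the series not given in the record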
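Fluorescence-quenching assay: 15 nM Sfp-PPTase preincubated 15 min at room temperature with compound, then 5 uM rhodamine-CoA and 12.5 uM BHQ-2-labelled YbbR peptide added. Fluorescence (ex 525/em 598 nm) read at start and after 30 min; difference gives rate.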
TRPV1 PAM – HTS Assay for Compounds that Act as Potentiators of the Vanilloid Receptor 1. TRPV1-expressing cells, Fluo-8 calcium influx, capsaicin EC20 potentiation; host cell line not named in the record; control for the full effect not named in the record. potentiation, % at 8.33 µM. 0.02% of 320,000 active. Transient receptor potential cation channel subfamily V member 1 (Homo sapiens), Q8NER1; active means potentiation above 80%; inconclusive means 30% to 80%; inactive means below 30%; further: 0% is about no effect
Target sequence (Q8NER1 whole entry, looked up): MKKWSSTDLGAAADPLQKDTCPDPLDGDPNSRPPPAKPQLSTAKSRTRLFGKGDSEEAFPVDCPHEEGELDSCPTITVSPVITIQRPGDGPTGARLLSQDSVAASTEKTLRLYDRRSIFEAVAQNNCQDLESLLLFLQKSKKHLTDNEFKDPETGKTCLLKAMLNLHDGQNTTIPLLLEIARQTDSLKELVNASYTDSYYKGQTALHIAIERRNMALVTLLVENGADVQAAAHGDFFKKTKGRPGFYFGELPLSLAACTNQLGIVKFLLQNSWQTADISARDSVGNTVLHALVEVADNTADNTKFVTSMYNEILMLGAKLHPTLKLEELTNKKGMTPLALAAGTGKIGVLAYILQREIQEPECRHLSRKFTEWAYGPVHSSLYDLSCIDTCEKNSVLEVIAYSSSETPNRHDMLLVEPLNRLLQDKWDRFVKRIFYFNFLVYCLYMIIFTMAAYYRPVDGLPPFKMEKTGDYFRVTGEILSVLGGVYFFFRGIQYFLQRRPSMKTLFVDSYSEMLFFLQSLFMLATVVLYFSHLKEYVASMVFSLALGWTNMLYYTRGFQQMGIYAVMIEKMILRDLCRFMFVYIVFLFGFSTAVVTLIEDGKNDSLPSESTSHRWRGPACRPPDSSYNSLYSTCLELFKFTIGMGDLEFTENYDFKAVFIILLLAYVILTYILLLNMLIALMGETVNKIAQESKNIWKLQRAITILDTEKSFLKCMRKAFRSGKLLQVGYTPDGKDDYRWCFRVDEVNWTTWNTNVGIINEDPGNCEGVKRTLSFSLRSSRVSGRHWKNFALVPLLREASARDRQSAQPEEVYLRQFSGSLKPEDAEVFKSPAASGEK
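Cells expressing TRPV1 were dye-loaded with Fluo-8 and read kinetically: 10 s baseline, 3 min after compound (agonist portion), then 2 min after EC20 capsaicin (allosteric enhancer portion). Calcium-bound dye fluorescence at 480/520 nm.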
TRPML1 ag – qHTS for Agonists of the Human Mucolipin Transient Receptor Potential 1 (TRPML1) | Mucolipin-1 (Homo sapiens), Q9GZU1 | TRPML1-expressing cells, Ca2+ dye fluorescence, FDSS; host cell line not named in the record; reference of the full effect not given here | activation, % (concentration not given with the values) | 0.12% of 410,000 active | AID 624414, 2012; in the data active = activation above about 50%; inconclusive = about 30% to 50%; inactive = below about 30%; further: 0% is about no effect; the text of the record puts the active cut at 80%
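TRPML1-DL cells, Tet-induced overnight (~16 h, 37 degrees C), loaded 45-90 min at room temperature with Ca8 no-wash calcium dye plus quencher. FDSS fluorescence: 10 s baseline, compound pin-transfer, 110 s agonist read, then EC80 54-4 (4uM final) and 110 s antagonist read.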
ClpP mod – qHTS Assay for Activators of ClpP. ATP-dependent Clp protease proteolytic subunit (Bacillus subtilis (strain 168)), P80244. purified B. subtilis ClpP, FRET peptide cleavage, 20 min. Potency, µM (series often up to 57.5 µM), without a hit: at the top dose activity change, negative = active. 1.9% of 340,000 active; active = well fitted falling curve with a large enough effect; inconclusive = small, poorly fitted or top-dose-only effect; inactive = no such curve, though single readings can be large or run the other way; further: potency means the concentration at half of the fitted maximal effect; the source files actives as falling curves though it sought activators and does not explain the sign; nearly all actives have a fitted effect of over 65% in size; many hits overshoot -100%
Target sequence (P80244 whole entry, looked up): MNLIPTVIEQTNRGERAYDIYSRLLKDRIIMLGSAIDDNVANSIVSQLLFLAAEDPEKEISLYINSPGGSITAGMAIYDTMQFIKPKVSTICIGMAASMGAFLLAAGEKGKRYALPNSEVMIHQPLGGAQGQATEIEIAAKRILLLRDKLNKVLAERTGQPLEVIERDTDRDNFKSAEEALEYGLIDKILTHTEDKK
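Buffer: 100 mM Tris/HCl pH8, 100 mM KCl, 0.05% low protease BSA, 2.5% glycerol, 0.01% Tween-20. ClpP 10 microg/mL final; 20 min RT; delta FRET normalized to ADEP and DMSO controls.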
TRPML1 inh – qHTS for Inhibitors of the Human Mucolipin Transient Receptor Potential 1 (TRPML1). activity change, negative = inhibition, % (concentration not given with the values). TRPML1-inducible cells, Ca2+ dye fluorescence, FDSS; stronger effect = lower value; inhibition of EC80 agonist-evoked calcium signal. Mucolipin-1 (Homo sapiens), Q9GZU1. AID 624415, 2012. 0.02% of 390,000 active; in the data active means activity change below about -50%; inconclusive means about -30% to -50%; inactive means above about -30%;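 further: stimulus is agonist 54-4 at its EC80 concentration; on the % scale 0 is the no-effect control and ±100 the full control effect; compound concentration not given in the record; the text of the record puts the active cut at -80%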
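Tet-induced TRPML1-DL cells loaded with Ca8 no-wash calcium dye were read kinetically on FDSS. Compound addition was followed by EC80 agonist 54-4 (4 uM final); inhibition was read over 110 s.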
An asterisk follows results filed as active; ? = inconclusive; . = no result given; & = joins results of further samples; [ ] = another dose, or the depositor's remark.

No. | SMILES | TRPML1 inh | ClpP mod | TRPV1 PAM | TRPML1 ag
1 | CC(=O)NC12CC3CC(C1)CC(C(=O)N1CCN(S(=O)(=O)c4cccs4)CC1)(C3)C2 | -17 | -1.2% | -12 | 0.0
2 | c1ccc2c(CSc3nnc(-c4ccncc4)o3)cccc2c1 | 3 | -0.8% | -31 | 0.9
3 | CCOC(=O)N1CCN(c2nc(-c3ccc(OC)cc3)no2)CC1 | -10 | -2.6% | 3 | 2.0
4 | C=CCCC(=O)Nc1ccc(COC(=O)N2CCOCC2)cc1 | 3 | -0.6% | 6 | 0.1
5 | COc1ccc(C(=O)N/C(=C\c2cn(C)c3ccccc23)C(=O)NCCN2CCOCC2)cc1OC | -1 | -4.9% | 2 | 0.6
6 | Cc1ccc(C(=O)OCc2cc(=O)n3nc(CC(C)C)sc3n2)cc1 | -2 | -4.3% | . | -0.6
7 | CC(C)N(C(=O)COC(=O)c1ccccc1C(=O)c1ccc(Cl)c([N+](=O)[O-])c1)C(C)C | 0 | 0.7% | -12 | -0.3
8 | O=c1oc(C2(O)CCCCC2)cc2ccc(Br)cc12 | 22 | -10.0% | 4 | 0.5
9 | COC(=O)c1cccc(N(C(=O)c2cnccn2)C(C(=O)NCc2ccccc2)c2ccco2)c1 (centres undefined) | 7 | -0.8% | 1 | 0.0
10 | COc1ccc(N2CCN(C(=O)COC(=O)c3cccc(S(=O)(=O)Nc4cccc(C)c4)c3)CC2)cc1 | 8 | . | 11 | 2.5
11 | Cc1ccccc1-n1cc(CNC(=O)CC2C(=O)NCCN2C/C=C/c2ccccc2)cn1 (centres undefined) | 4 | -0.4% | 5 | 0.8
12 | CN(c1ccccc1)S(=O)(=O)c1ccc2[nH]c(=O)oc2c1 | -16 | . | 1 | ?
13 | COc1ccc(CCC(=O)NCCc2csc(-c3ccc(C(F)(F)F)cc3)n2)cc1 | -8 | 6.0% | . | 2.4
14 | CC1CCN(CCOc2ccc(C(=O)c3ccccc3)cc2)CC1 | -14 | 1.3% | 81* | -0.2
15 | CC(=O)Nc1cc(-c2cccc(CO)c2)cn2c(-c3ccc(F)cc3)cnc12 | . | -8.7% | . | -0.9

No. | Menin MLL FP FL | Sfp PPTase inh | PINK1 expr mod
1 | . | . | -0.4%
2 | 0.2 | ? | 0.0%[38.3 µM]
3 | 0.4 | 1% | 8.7%[38.3 µM]
4 | -5.0 | 11% | -3.1%[38.3 µM]
5 | 4.1 | -21% | -0.3%
6 | . | . | 2.5%
7 | -1.2 | 11% | -3.5%
8 | . | . | 3.2%
9 | 1.3 | 4% | 1.6%[38.3 µM]
10 | . | . | -1.8%
11 | -2.3 | -2% | 2.7%
12 | -2.0 | 21% | 2.0%
13 | . | . | 2.7%
14 | -2.9 | -21% | 0.6%
15 | . | . | 1.9%

The results go on.
No. | SMILES | TRPML1 inh | ClpP mod | TRPV1 PAM | TRPML1 ag
16 | CCOc1ccc(NC(=O)CSC2=NCCN2)cc1 | -9 | -0.4% | -7 | 0.0
17 | O=C1OC(Nc2ccccn2)c2ccccc21 (centres undefined) | 2 | -9.4% | 17 | 4.4
18 | Nc1c2c(nc3ccccc13)CSCC2 | 1 | . | . | 0.5
19 | O=C(CNC(=O)c1ccc(OC(F)F)cc1)Nc1cccc(S(=O)(=O)N2CCCC2)c1 | -7 | 1.7% | 2 | -0.2
20 | Nc1ccc(O)c(-c2nc3ccccc3s2)c1 | -18 | -0.7% | -2 | 1.9
21 | COc1cc(/C=C2\SC(=S)N(Nc3ncc(C(F)(F)F)cc3Cl)C2=O)ccc1O | 0 | 1.1% | ? | 0.7
22 | Cc1cc(=O)n2nc(N3CCCC3C(=O)Nc3cccc(F)c3)sc2n1 (centres undefined) | -2 | 1.6% | 15 | -0.3
23 | O=C(N/N=C\c1cccnc1)c1ccccc1O | -11 | 0.7% | ? | -0.3
24 | Cc1cccc(NC(=O)c2ccc(COc3cccc4ccccc34)o2)n1 | -1 | -1.2% | 11 | -0.7
25 | CCOC(=O)c1c(NC(=O)CSc2ncn[nH]2)sc(C(C)=O)c1C | -12 | -1.6% | -5 | -0.9
26 | COc1cc(/C=C(\C#N)C(=O)Nc2ccc3ccccc3c2)c([N+](=O)[O-])cc1OC | -13 | -6.3% | 7 | 0.5
27 | COCCc1ccc(OC2(C)CCN(Cc3ccc(OC)c4ccccc34)C2)cc1 (centres undefined) | . | -13% | . | -0.1
28 | COc1cccc(OC)c1C(=O)Nc1ccccc1NC(=O)c1c(OC)cccc1OC | 6 | -0.9% | -5 | -1.8
29 | COc1ccc(NC(=O)CC2SC(N3CCOCC3)=NC2=O)c(OC)c1 (centres undefined) | -1 | -1.7% | ? | 1.9
30 | O=C(Nc1ccc(OC(F)(F)C(F)F)c(NC(=O)c2cccc(F)c2)c1)c1cccc(F)c1 | 1 | 9.7% | -3 | 2.9

No. | Menin MLL FP FL | Sfp PPTase inh | PINK1 expr mod
16 | -2.5 | -2% | -1.4%
17 | 0.6 | 13% | 0.2%
18 | . | . | -0.7%
19 | . | . | 3.1%
20 | -0.2 | -6% | -1.3%
21 | ? | ? | 2.7%
22 | 4.6 | 12% | 0.2%
23 | -8.4 | 7% | 0.4%
24 | 2.4 | -6% | 8.4%
25 | . | 18% | -0.7%
26 | 6.4 | 16% | -1.0%
27 | . | . | ?
28 | -2.5 | -3% | -2.8%
29 | . | . | 0.4%
30 | 9.3 | 5% | 9.4%

Further results
No. | SMILES | TRPML1 inh | ClpP mod | TRPV1 PAM | TRPML1 ag
31 | COc1cccc(C(=O)Nn2c(C)nnc2-n2nc(C)cc2C)c1 | 7 | 1.3% | 11 | 0.5
32 | Cc1cccc(NC(=O)CSCC(=O)OCc2ccccn2)c1 | 29 | . | -7 | 0.6
33 | O=[N+]([O-])c1ccc(O)c(/C=N\N=C2c3ccccc3-c3ccccc32)c1 | 1 | ? | 17 | -0.8
34 | CCNc1c2c(nc3ccccc13)CC(C)(C)CC2=O | 5 | -7.6% | 0 | 0.1
35 | Cc1ccc(NC(=O)c2ccc3nsnc3c2)c(Cl)c1 | 49 | 1.1% | -4 | -0.6
36 | CCN(CC(=O)Nc1c(F)cccc1F)C(=O)Cc1c(C)nc2ccccc2c1C | 12 | -5.3% | 13 | -0.2
37 | CCC(=O)N1CCc2cc(S(=O)(=O)NC(C(=O)NCCc3ccc(C)cc3)C(C)C)ccc21 (centres undefined) | -16 | -1.1% | . | 1.2
38 | CC1(C)CC(=O)C2=C(C1)OC(N)=C(C#N)C2C1CC=CCC1 (centres undefined) | -4 | 2.6% | -6 | 0.7
39 | CC(C)c1nn2c(=O)cc(COC(=O)c3ccccc3NC(=O)COc3ccccc3)nc2s1 | -3 | 16% | . | 1.5
40 | CCOC(=O)CSc1nnc(CSc2nc(C)cc(C)n2)n1Cc1ccco1 | 3 | 0.5% | -4 | 2.6
41 | O=C(Cn1c(=O)sc2ccccc21)NCCOc1ccccc1F | -14 | 7.9µM* | -6 | -0.4
42 | COc1ccc(C)cc1NC(=O)C1CCN(S(=O)(=O)c2cccc3nonc23)CC1 | -4&6 | 2.4% | 29 | 2.5&-0.9
43 | CC(Sc1ccccc1)C(=O)Nc1ccc(N2CCOCC2)cc1 (centres undefined) | 51 | 0.2% | -12 | 0.5
44 | Cc1ccc(NC(=O)CSc2nc3c([nH]c4ccccc43)c(=O)n2-c2ccccc2)cc1Cl | -9 | -29% | . | -0.3
45 | O=C(NNC(=O)C1CCCC1)c1ccccc1F | 29 | . | -1 | 0.1

No. | Menin MLL FP FL | Sfp PPTase inh | PINK1 expr mod
31 | -2.7 | 12% | 0.2%
32 | . | . | 1.1%
33 | 5.6 | 4% | 10µM*
34 | -0.5 | -23% | 1.1%
35 | 1.4 | 11% | 4.0%
36 | . | . | -0.8%
37 | . | . | 0.4%
38 | 2.0 | 8% | 1.6%[38.3 µM]
39 | . | . | -0.2%
40 | 1.9 | 20µM* | -1.5%
41 | 0.2 | 21% | 1.8%
42 | 4.6 | 12% | 23%&15%
43 | 0.0 | 7% | -0.9%
44 | . | . | 2.0%
45 | 1.5 | 13% | 1.7%

Three records drawn at random from the list so far:
No. | SMILES | TRPML1 inh | ClpP mod | TRPV1 PAM | TRPML1 ag
35 | Cc1ccc(NC(=O)c2ccc3nsnc3c2)c(Cl)c1 | 49 | 1.1% | -4 | -0.6
41 | O=C(Cn1c(=O)sc2ccccc21)NCCOc1ccccc1F | -14 | 7.9µM* | -6 | -0.4
44 | Cc1ccc(NC(=O)CSc2nc3c([nH]c4ccccc43)c(=O)n2-c2ccccc2)cc1Cl | -9 | -29% | . | -0.3

No. | Menin MLL FP FL | Sfp PPTase inh | PINK1 expr mod
35 | 1.4 | 11% | 4.0%
41 | 0.2 | 21% | 1.8%
44 | . | . | 2.0%

The list goes on.
No. | SMILES | TRPML1 inh | ClpP mod | TRPV1 PAM | TRPML1 ag
46 | COc1ccc(OC)c(-c2cc(C3CCN(C(=O)OC(C)(C)C)CC3)[nH]n2)c1 | 39 | -18% | 10 | 0.6
47 | N#CC1=C(N)N2C(=C(C#N)C13CCCC3)Nc1ccccc12 | 40 | -0.8% | 4 | 0.5
48 | CCN(CC(=O)Nc1cccc(OC)c1)C(=O)c1cnc(Cl)c(Cl)c1 | -20 | . | -5 | -0.1
49 | COC(=O)C(C)n1cnc2c(nnn2-c2ccc(F)cc2)c1=O (centres undefined) | 8 | 0.6% | 15 | -0.5
50 | O=C(c1ccc(Cl)cc1)N1CCN(c2cc(=O)[nH]nc2-c2ccccc2)CC1 | 4 | -2.7% | -2 | 0.3
51 | O=C(N/N=C/c1c[nH]c2ccccc12)c1[nH]c2ccc(Br)cc2c1-c1ccccc1 | 20 | -16% | -17 | 2.0

No. | Menin MLL FP FL | Sfp PPTase inh | PINK1 expr mod
46 | 2.3 | 7% | 0.7%
47 | 2.8 | ? | 0.7%
48 | -5.2 | -12% | 2.5%
49 | -0.9 | 16% | 0.1%
50 | 4.4 | 21% | -3.5%
51 | 9.4 | 33%[activator] | 9.9%
